# VDR inhibitor = inhibitors of human vitamin D receptor; P11473; VDR-SRC2-3 peptide fluorescence polarization, 2 h; Potency, µM, for the others: max response, negative = inhibition, hits mostly inhibitors; actives 0.93% (n = 400,000); AID 504847; active = well fitted inhibition curve with a large enough effect; inconclusive = small, poorly fitted or top-dose-only effect, or another doubt; inactive = no such curve, though single readings can be large or run the other way; note: series mostly up to about 120 µM
# Target sequence (P11473 whole entry, looked up): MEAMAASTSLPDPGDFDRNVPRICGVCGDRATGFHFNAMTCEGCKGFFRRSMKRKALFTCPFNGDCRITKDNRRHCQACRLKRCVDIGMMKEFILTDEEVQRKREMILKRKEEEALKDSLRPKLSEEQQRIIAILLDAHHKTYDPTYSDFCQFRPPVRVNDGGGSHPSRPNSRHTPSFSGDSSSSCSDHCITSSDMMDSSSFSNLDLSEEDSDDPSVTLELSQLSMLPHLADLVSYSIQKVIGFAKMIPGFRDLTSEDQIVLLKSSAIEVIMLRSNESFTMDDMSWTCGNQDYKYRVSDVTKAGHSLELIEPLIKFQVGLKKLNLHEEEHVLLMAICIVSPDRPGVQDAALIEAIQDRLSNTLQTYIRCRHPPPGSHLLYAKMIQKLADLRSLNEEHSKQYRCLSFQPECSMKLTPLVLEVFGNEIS
#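 Fluorescence polarization assay measuring small-molecule disruption of VDR binding to the coregulator peptide SRC2-3. Compounds were pin-transferred (23 nl) into the reagent mix and incubated 2 h at room temperature before reading.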
# Starred values were filed as active, the others as inactive; ? = inconclusive; & = joins results of further samples; [ ] = remark or other dose. % is set by controls: 0 for no effect and ±100 for the full control effect; potency is the fitted concentration of half-maximal effect. This is a subset. The share of hits here may be higher or lower than overall.
smiles	VDR inhibitor
Cc1nc(C(=O)NC2CC2)sc1C1(C)CC(c2cccc([N+](=O)[O-])c2)=NO1 (stereo not drawn)	-14%
COc1ccccc1OCC(=O)Nc1oc(-c2ccccc2)c(-c2ccccc2)c1C#N	-9%
CCCC(CCC)C(=O)NNc1cc(=O)c2c(=O)n(C)c(=O)n(C)c2[nH]1	-15%
CCOc1ccc(Nc2ncnc3c2nc2n3CCCC2)cc1	10%
COc1ccc(-c2cn3cccnc3n2)cc1NC(=O)C1CCCC1	-2%
CCOC(=O)C1=C(C)NC2=C(C(=O)c3ccccc32)C1c1cccnc1 (stereo not drawn)	-8%
Nc1nc(SCC(=O)N2CCN(c3ccccc3)CC2)n[nH]1	20%
Cc1cccc(C)c1NC(=O)CSc1nnc(-c2ccoc2C)n1CCc1ccccc1	-2%
C/C(Cc1ccccc1)=N\NC(=O)CNC(=O)COc1cccc(C)c1	-9%
O=C(NCCc1c[nH]c2ccccc12)C1CCN(S(=O)(=O)c2ccc(F)cc2)CC1	4%
CCCNC(=O)C(Sc1ccccc1)c1ccccc1 (stereo not drawn)	-21%
COc1ccc(OC)c(N(CC(=O)N2CCCC2)S(C)(=O)=O)c1	-24%
COc1cc2c(cc1OC)CN(S(=O)(=O)c1ccccc1F)CC2	-17%
O=C(NCC(=O)N(Cc1ccc(F)cc1)C(C(=O)NC1CCCC1)c1ccco1)c1ccco1 (stereo not drawn)	-1%
Cc1c(C(=O)N2c3ccccc3CC2C)oc2ccccc12 (stereo not drawn)	11%
Cc1ccc2cc(CN(Cc3ccc4c(c3)OCO4)Cc3nnnn3Cc3ccco3)c(=O)[nH]c2c1C	0%
O=C(c1cccc([N+](=O)[O-])c1)n1nc(-c2ccccc2)nc1NCc1ccccc1	-10%
C#CCNc1c2c(nc3nnnn13)CCCC2	22%
COc1ccc(-c2cc(C(=O)Nc3ccccc3O)c3ccccc3n2)cc1OC	1%
Cc1nc(SCC(=O)O)c(C#N)c2c1CCCC2	-17%
O=C(COc1cccnc1[N+](=O)[O-])N1N=C(c2ccc(Cl)cc2)CC1c1ccco1 (stereo not drawn)	-2%
Cc1cccc(N2N=C(C(=O)OCC(=O)c3ccccc3)CCC2=O)c1	-7%
O=C(Nc1ccncc1)Nc1ccc(Cl)cc1	9%
O=[N+]([O-])c1ccc2c(c1)C=C1CCCCC1(N1CCCCC1)O2 (stereo not drawn)	12%
COc1ccc(C(=O)Nc2c(N)nc(SCC(=O)NCC3CCCO3)[nH]c2=O)cc1OC (stereo not drawn)	-2%
COc1ccc(C(CNC(=O)c2oc3cc(C)c(C)cc3c2C)N2CCCCC2)cc1 (stereo not drawn)	10%&17%
CCOc1ccc(CCNC(=O)c2ccc(CS(=O)Cc3ccc(Cl)cc3)o2)cc1 (stereo not drawn)	8%&3%
Cc1nn2c(-c3ccccc3)ccnc2c1Br	1%
CCOC(=O)C1CCN(C(=O)COc2cc(C)c(Br)c(C)c2)CC1	12%
O=S(=O)(c1ccc(-c2n[nH]c(=S)o2)cc1)N1CCCCC1	11%

# (listing goes on)
smiles	VDR inhibitor
CCc1ccccc1NC(=O)CN1CCN(C(=O)c2ccc(OCc3cn4ccccc4n3)cc2)CC1	-5%
Cc1ccc(O)c(Nc2ncnc3ccccc23)c1	9%
CC(C)(C)OC(=O)NC1CC2CCCC(C1)N2Cc1ccccc1 (stereo not drawn)	17%
Cc1cc(NS(=O)(=O)c2ccc(NC(=O)Cc3ccc([N+](=O)[O-])cc3)cc2)nc(C)n1	17%
O=C(C1CCN(S(=O)(=O)c2cccs2)CC1)N1CCN(Cc2ccccc2)CC1	-3%
COc1ccc(NC(=O)N2CCN(S(=O)(=O)c3ccc4c(ccn4C)c3)CC2)cc1OC	10%
CCOc1cnn(-c2cc(Oc3ccc(C)cc3)ncn2)c(=O)c1Cl	10%
CCC1(c2ccccc2)C(=O)N=C(N)N(C#N)C1=O (stereo not drawn)	-19%
O=C(O)c1cc(S(=O)(=O)NC2CCCc3ccccc32)ccc1O (stereo not drawn)	-15%
Cc1nc(CSc2ccc(Br)cc2)cs1	-1%
Cc1cccc(NC(=O)c2c(NC(=O)c3cccs3)sc3c2CCC(C)C3)c1 (stereo not drawn)	-13%
Cc1cc(N2CCCN(C)CC2)nc2cc(Cl)ccc12	23%
C(#CC12CC3CC(CC(C3)C1)C2)CN1CCOCC1	1%
Cc1ccn(CCSCC(=O)O)n1	21%
CN1CCN(NC(=O)Nc2ccc(Br)cc2Cl)CC1	-18%
O=S(=O)(c1c(F)cccc1F)N1CCN(C(=S)NCc2ccc3c(c2)OCO3)CC1	-7%
CCOC(=O)c1ccsc1NC(=O)CCS(=O)(=O)c1ccccc1	-13%
O=C(NCc1ccc(Cl)cc1)c1cnc(N2CCOCC2)c2ccccc12	12%
Cc1oc(-c2ccccc2Cl)nc1CSCC(=O)NC1CCCC1	5%
Cc1ccc(NC(=O)CCS(=O)(=O)c2ccc3nc(C)sc3c2)c(C)c1	9%
Cc1ccc(CCNC(=O)C2CC(=O)N(CCc3ccccc3)C2)cc1 (stereo not drawn)	4%&11%
COc1ccccc1CNC(=O)Cn1ncc2c3ccccc3n(Cc3ccccc3C)c2c1=O	5%
COc1cccc(Nc2nnc(SCc3cc([N+](=O)[O-])cc4c3OCOC4)s2)c1	8%
CCOc1ccccc1NC(=S)NCCCn1ccnc1	5%
Nc1nc(Nc2ccccc2F)nc(N2CCOCC2)c1[N+](=O)[O-]	-9%
O=C(NC1CCCC1)C(c1ccncc1)N(C(=O)c1csnn1)c1ccc(F)cc1 (stereo not drawn)	-5%
Cc1ccc(C)c(OCCC(=O)NCCc2ccc(F)cc2)c1	7%
O=C(Nn1cnnc1)c1ccc([N+](=O)[O-])cc1	-1%
CCN1CCN(CC(=O)Nc2cc(S(=O)(=O)N(CC)c3ccccc3)ccc2Cl)CC1	-8%
CC(C)(C)c1ccc(OCC(=O)O/N=C(\N)c2ccncc2)cc1	11%

# Remaining list, next part.
smiles	VDR inhibitor
O=C(CSc1nnc(-c2ccco2)o1)N1CCOCC1	5%
O=S(=O)(NCC1CCCN(Cc2ccccc2)C1)c1cccc2cccnc12 (stereo not drawn)	12%
O=C(N/N=C/c1ccccc1C(=O)O)c1cccc(S(=O)(=O)N2CCCCC2)c1	-13%
O=C1CCCc2c1[nH]c1ccc(Cl)cc21	-3%
Cn1c(N)c(C(=O)COC(=O)/C=C/c2ccc(Cl)cc2Cl)c(=O)n(C)c1=O	-7%
Cc1cccc(OCCCN2CCOCC2)c1	10%
Cc1ccc2c(c1)-c1c(cnn1CC(=O)N1CCCN(Cc3ccccc3F)C1)CO2	-16%
CCCN(CC(=O)Nc1ccccc1C)C(=O)Cc1c[nH]c2ccccc12	1%
CCCCN1C(=O)/C(=C/C=C2\SCCN2C)SC1=S	-5%
CN(Cc1ccccc1)c1c([N+](=O)[O-])c(=O)n(C)c2ccccc12	-6%
CCC(Oc1ccccc1)C(=O)Nc1nnc(S(=O)(=O)N(CC)CC)s1 (stereo not drawn)	10%
Cc1ccc(C2(C)NC(=O)N(CC(=O)N3CCN(S(=O)(=O)c4cccc(F)c4)CC3)C2=O)cc1 (stereo not drawn)	-3%
C=CCNCc1cccn1-c1sc2c(c1C#N)CCCC2	-2%
COc1ccccc1OCCn1c(SCC(N)=O)nc2ccccc21	11%
Cc1ccc(C(=O)c2ccccc2C(=O)OCC(=O)NCCc2ccc(Cl)cc2Cl)cc1	5%
CCCNC(=O)NC(=O)CSc1nc2ccccc2c(=O)n1Cc1ccncc1	4%
COc1ccc(-c2c(-c3ccccc3OC)oc3ccccc23)cc1F	-14%
CCOC(=O)c1cnc2nc[nH]n2c1=O	7%
COc1ccc(-c2nc(C)ncc2-c2ccccc2)c(O)c1	14%
Fc1ccccc1CSc1ncnc2c1ncn2C1CCCCO1 (stereo not drawn)	3%
CC(C)c1ccc(NC(=S)NCc2cccs2)cc1	7%
COC(=O)Cn1ncc(N(C)Cc2ccccc2)c(Cl)c1=O	2%
CC(C)(C)c1csc(NC(=O)CS(=O)(=O)c2ccccc2)n1	10%
CS/C(=N\S(=O)(=O)c1ccc(F)cc1)c1ccccc1	11%
O=C(OCc1ccc(Br)cc1)c1cccc(-c2nnc(-c3ccccc3)o2)c1	2%
Cc1cc(C)nc(SCc2cn3c(C)cc(C)nc3n2)n1	7%
Cc1ccc(CNn2cn[nH]c2=S)cc1	-6%
O=C(Nc1nc2ccsc2c(=O)s1)C1CCC1	11%
Cc1ccc(C(=O)COc2ccc3c(C)cc(=O)oc3c2)cc1	1%
Cc1cccc(NC(=O)C(=O)NCC2CCCO2)c1 (stereo not drawn)	-23%

# The last 2 compounds of the section above open the next one.
smiles	VDR inhibitor
Cc1ccc(C(=O)COc2ccc3c(C)cc(=O)oc3c2)cc1	1%
Cc1cccc(NC(=O)C(=O)NCC2CCCO2)c1 (stereo not drawn)	-23%
c1cc(-n2nnc3cnccc32)ccn1	-15%
CCn1c(CNC(=O)c2ccc(F)cc2)cc2ccccc21	-22%
O=C(O)c1cccc(S(=O)(=O)N2CCOCC2)c1	-7%
O=C(CSc1ccc(Cl)cc1)Nc1cccc(NC(=O)c2ccco2)c1	16%
COCc1nnc(NC(=O)c2cc(OC)c(OC)cc2[N+](=O)[O-])s1	-16%
CCOC(=O)c1ccc(NC(=S)NCc2ccc(F)cc2)cc1	-9%
CCCc1nnc(SCC(=O)O)n1CC	-10%
NC(=O)Nc1ccc(C(=O)OCC(=O)Nc2ccc([N+](=O)[O-])cc2C(F)(F)F)cc1	-15%
Cc1cccc(C(=O)Nc2ccc(S(=O)(=O)N3CCOCC3)cc2C)c1	-7%
O=C(NCc1ccc(F)cc1)c1ccc2nc(N3CCCCC3)sc2c1	-6%
Cn1cc(C(=O)c2cccc(Cl)c2)cc1/C=N\O	20%
Cc1ccc(C(=O)Nc2cccc([N+](=O)[O-])c2)cc1S(=O)(=O)Nc1ccc(NC(=O)c2ccccc2)cc1	17%
Cc1ccc(NC(=O)Cn2cc(C(=O)C3CC3)c3ccccc32)cc1	-13%&-20%
O=C(Nc1ccc(F)cc1)N1CCc2ccccc2C1	-15%
CCN(CCCNC(=O)c1[nH]c(C)c(C(C)=O)c1C)c1cccc(C)c1	5%
Fc1ccccc1NC(=S)Nc1ccc(Br)cc1	-28%
CC(=O)Nc1ccc(NC(=O)c2sc3nc4n(c(=O)c3c2C)CCCCC4)cc1	-10%
CC(C)(C)OC(=O)NCCCC[C@H](NC(=O)c1[nH]cnc1C(=O)Nc1ccccc1)C(=O)OC(C)(C)C	-1%
CSCC(=O)N1CCCC(CNC(=O)c2ccccc2Cl)C1 (stereo not drawn)	4%
COc1ccccc1-c1nc(NCc2cccnc2)c2ccccc2n1	?
Cc1ccc(S(=O)(=O)NCCNC(=O)N2CCOCC2)cc1	0%
Cc1cc2nc(CO)[nH]c2cc1C	-10%
COc1ccc(-n2c(=O)c3ccccc3n(CC(=O)NCc3ccco3)c2=O)cc1	33%[activator]
O=C(c1ccc2c(c1)CCN2S(=O)(=O)c1ccccc1)N1CCN(c2cccc(Cl)c2)CC1	5%
Cc1cc(C)n2nc(C(=O)OCC(=O)N3C(C)CCCC3C)nc2n1 (stereo not drawn)	-5%
O=C(NCc1ccc(Cl)cc1)c1ccc2ccccc2n1	6%
O=C(CN(Cc1ccccc1)S(=O)(=O)c1ccc(Br)cc1)N/N=C/c1ccccc1C(=O)O	18%
CN(C)/N=C/c1cc(Cl)cc([N+](=O)[O-])c1O	-3%
COc1ccccc1NS(=O)(=O)c1cc(NC(=O)C2CCCO2)ccc1C (stereo not drawn)	-12%
CCOc1ccc(C(=O)c2cn(Cc3ccccc3OC)c3ccc(F)cc3c2=O)cc1	1%

# Carrying on:
smiles	VDR inhibitor
CCCCCCCCCCOCCC(=O)O	-12%&2%
c1ccc(-c2nc(N3CCOCC3)c3ccccc3n2)nc1	-6%
COc1ccc(CN(C(=O)Cc2cccs2)C(C(=O)NC2CCCC2)c2ccncc2)cc1 (stereo not drawn)	-4%
Cc1ccccc1CNC(=O)CN1C(=O)CCCc2ccccc21	4%
Cc1ccc(C)c(N2CCN(C(=O)Cn3ncc4ccsc4c3=O)CC2)c1	-4%
CCOP(=O)(OCC)C(Nc1ccccn1)c1ccccc1 (stereo not drawn)	-8%
O=C(O)c1cc(-c2ccc(Cl)cc2)n(-c2ccc(F)cc2)n1	?
CCC(Sc1ncccc1C(=O)Oc1ccccc1Cl)C(=O)Nc1ccccc1OC (stereo not drawn)	9%
Cc1nc2c(=O)oc3ccccc3c2n1-c1ccccc1	-3%
CCCCC1(C)Nc2ccccc2-c2nc3ccccc3n21 (stereo not drawn)	0%
Cc1cc(C(=O)CSc2nc(N)cc(=O)[nH]2)c(C)n1-c1ccc(OC(F)F)cc1	5%
CCOC(=O)c1c(C)[nH]c(CCC(=O)NCc2ccc(CC)cc2)c1C	12%
O=C1NC(=Nc2cccc(O)c2)S/C1=C\c1cccc([N+](=O)[O-])c1	?

# A run of entries from the list above:
smiles	VDR inhibitor
Cc1cc(C(=O)CSc2nc(N)cc(=O)[nH]2)c(C)n1-c1ccc(OC(F)F)cc1	5%
CCOC(=O)c1c(C)[nH]c(CCC(=O)NCc2ccc(CC)cc2)c1C	12%
O=C1NC(=Nc2cccc(O)c2)S/C1=C\c1cccc([N+](=O)[O-])c1	?

# Source: PubChem BioAssay (National Center for Advancing Translational Sciences (NCATS))
